Vif TR-FRET: inhibitors of Vif binding to APOBEC3G peptide, primary screen, biochemical, TR-FRET, GST-Vif 1-94, biotin-A3G peptide, dose response retest (AID 1117319). TR-FRET GST-Vif / biotin-A3G peptide binding; higher % means a stronger effect; test concentration not given here; strong numbers were not always called active. one-dose inhibition, %; IC50 in µM for titrated hits. 260,000 tested, 0.57% active;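 active = above the screen mean plus three standard deviations and confirmed in dose response; inconclusive = results disagree or hit not tested in dose response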;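 also: Vif residues 1-94 fused to GST binding biotinylated APOBEC3G peptide 110-148; 0% = full assay without inhibitor and 100% = GST in place of GST-Vif; retest series ran down from 100 µM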
RanGTP-Imp inh: inhibitors of RanGTP-importin-beta interaction, primary screen, biochemical, FRET, CFP-Ran, YFP-importin-beta, homogeneous; cell-free CFP-Ran/YFP-importin-beta FRET ratio; inhibition, % (test concentration not listed); 300,000 tested, 1.1% active; AID 2216;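 active = most replicates above 15%; inconclusive = exactly half above 15%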;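 also: 0% = DMSO wells and 100% = Ran loaded with GDP instead of GTP; wells of about 40 µL received 100 nL stock; the first replicate is given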
Calb FLC: affects C. albicans growth with fluconazole; C. albicans CaCi-2 (fluconazole-resistant clinical isolate) + fluconazole, Alamar Blue growth, 48 h; growth inhibition, % (concentration not given with the values); 300,000 tested, 0.57% active; AID 1979;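 active = most replicates above 75%; inconclusive = exactly half above 75%; inactive = most below 75%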;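 also: all wells also contain fluconazole at 8 µg/ml as a sub-toxic cotreatment; 0% = median of DMSO wells and 100% = median of geldanamycin control wells; wells of about 8 µL received 7.5 nL stock; the first replicate is given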
LANA-H2B inh: blocks KSHV LANA binding to histone H2A/H2B; cell-free LANA-H2A/H2B peptide, fluorescence polarization; inhibition, % (test concentration not listed); 320,000 tested, 0.6% active; AID 2629; in the data active = inhibition mostly above about 10%, no sharp cut-off; inactive = mostly below about 6.7%;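 also: stock transfer was 7.5 nL into about 10 µL; 0% = median of vehicle wells and 100% = median of positive control wells; one replicate is shown; the record names a cut of 25% in any replicate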
A1 inh: inhibitors of the anti-apoptotic protein A1, read as caspase activation; 330,000 tested, 0.066% active; MEF A1-2A-BIM cells, Caspase-Glo 3/7 luminescence, 3 h; percent of clofoctol response, vehicle zero; AID 2462; caspase activation, % (concentration not given with the values);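 active = over half of replicate activation scores above 10%, or exactly half above 10 with the replicate mean above 10; inconclusive = replicate mean below 10 yet half the replicates above 10; inactive = over half of replicates below 10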;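 also: wells of about 30 µL received 50 nL stock; many hits fall short of the cut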
Beta cell apopt: blocks beta cell apoptosis; AID 435005; protection from apoptosis, % (concentration not given with the values); 300,000 tested, 0.8% active; INS-1E cytokine-induced death, ATP luminescence, 48 h; percent of positive-control rescue, neutral wells zero;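 active = all replicates at 75% or more, or half of them and the mean; inconclusive = half reach 75% but not the mean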;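 also: 0% = cytokine-treated negative control wells and 100% = positive control rescue; higher means more ATP so stronger rescue from cytokine killing; wells of about 40 µL received 100 nL stock; the first replicate is given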
T cruzi inh: blocks replication of Trypanosoma cruzi | inhibition, % (no concentration beside the values) | 300,000 tested, 1.4% active | T. cruzi beta-gal in NIH3T3, luminescence, 90 h;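 active = mean inhibition across valid replicates above about 55%, limit read from the data; inconclusive = mean below that limit but half or more replicates reach it; inactive = mean below it, under half of replicates reach it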;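 also: signal also drops with host cell toxicity which is not excluded here; 0% = plate median of DMSO wells and 100% = zero luminescence signal; higher percent means less beta-gal luminescence so fewer parasites; stock transfer was 50 nL into about 50 µL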
AF4-AF9 inh: blocks AF4 peptide binding to human AF9 | AlphaScreen, biotin-AF4 peptide binding to FLAG-AF9 | inhibition, % at 10 µM | 350,000 tested, 0.47% active | AID 651704;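 active = every replicate reaching a set inhibition limit, whatever the replicate mean, cut at about 25% in these data; inconclusive = mean inhibition reaches that limit but some replicates miss it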;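 also: 0% = plate neutral control median and 100% = total signal loss; the record names both 10 and 1 µM as test concentration; the first replicate is given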
Target sequence (P42568 whole entry, looked up): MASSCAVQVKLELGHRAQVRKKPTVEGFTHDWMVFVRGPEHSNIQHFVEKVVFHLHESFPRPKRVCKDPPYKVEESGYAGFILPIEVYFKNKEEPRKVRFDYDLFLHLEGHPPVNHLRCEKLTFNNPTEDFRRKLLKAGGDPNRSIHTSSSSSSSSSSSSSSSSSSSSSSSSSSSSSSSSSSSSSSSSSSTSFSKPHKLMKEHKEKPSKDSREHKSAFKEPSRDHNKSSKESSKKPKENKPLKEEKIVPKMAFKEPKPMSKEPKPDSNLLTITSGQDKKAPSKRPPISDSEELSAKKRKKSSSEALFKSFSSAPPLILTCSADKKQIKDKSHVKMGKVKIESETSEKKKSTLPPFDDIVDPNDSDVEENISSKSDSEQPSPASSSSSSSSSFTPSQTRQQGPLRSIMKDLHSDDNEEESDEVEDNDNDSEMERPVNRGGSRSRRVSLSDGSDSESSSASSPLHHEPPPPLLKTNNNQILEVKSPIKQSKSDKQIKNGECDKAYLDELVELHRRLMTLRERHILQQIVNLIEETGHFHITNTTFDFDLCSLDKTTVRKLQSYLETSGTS
Numbers without * were called inactive; i = inactive; ? = inconclusive; . = no result given; & = joins results of further samples.

SMILES	Vif TR-FRET	RanGTP-Imp inh	Calb FLC	LANA-H2B inh	A1 inh	Beta cell apopt	T cruzi inh	AF4-AF9 inh
CCn1c(CCn2ccnc2C)n[nH]c1=S	-6%	6.2	-23	-2.9	-0.3	2	-6	.
CCN(CC(=O)NCc1ccc(Cl)cc1)C(=O)COc1cccc(Cl)c1	2%	4.8	6	4.0	-0.5	-6	-11	0.3
CCOP(=O)(OCC)C(Nc1ccccc1)c1ccco1 (stereo not drawn)	-2%	-0.8	-6	-5.7	1.8	1	15	-0.4
Cc1cc(=O)oc2cc(NC(=O)c3cc4ccccc4o3)ccc12	-5%	1.7	4	-4.2	0.3	4	-4	.
CCCNc1nc(Cl)nc(NC(C)(C)C)n1	-1%	5.0	33	0.5	-0.4	3	-14	0.5
CC(=O)NCC(=O)OCN1C(=O)c2ccccc2C1=O	3%	1.5	-2	-0.7	0.5	-1	-2	.
Cc1cccc(NC(=O)Cn2c(=O)n(Cc3ccco3)c(=N)c3c4c(sc32)COC(C)(C)C4)c1	72%&-3%	5.8	-6	.	-0.1	-5	7	.
COc1cc(/C=C2/NC(=O)NC2=O)cc(Br)c1OCc1ccccc1	2%	1.9	-5	5.9	0.2	1	1	-1.2
Cc1cc(C)nc(N(C#N)Cc2cccc(Cl)c2)n1	0%	51*	13	-1.6	-1.3	-2	4	-1.3
O=C(N/N=C/c1cc([N+](=O)[O-])ccc1Cl)c1cnccn1	.	-1.1	22	-1.5	0.1	8	1	-0.5
COc1ccccc1NC(=O)c1sc2ncn(Cc3cccc4ccccc34)c(=O)c2c1C	-42%	1.7	3	-2.3	0.3	-3	46	.
COC(=O)C1=C(N)Oc2cc(C)n(Cc3cccnc3)c(=O)c2C1c1cc(OC)ccc1OC (stereo not drawn)	17%	5.2	-4	-4.9	-0.5	-5	-9	.

Of the compounds above, 2 have a thiophene ring, fused or not:
SMILES	Vif TR-FRET	RanGTP-Imp inh	Calb FLC	LANA-H2B inh	A1 inh	Beta cell apopt	T cruzi inh	AF4-AF9 inh
Cc1cccc(NC(=O)Cn2c(=O)n(Cc3ccco3)c(=N)c3c4c(sc32)COC(C)(C)C4)c1	72%&-3%	5.8	-6	.	-0.1	-5	7	.
COc1ccccc1NC(=O)c1sc2ncn(Cc3cccc4ccccc34)c(=O)c2c1C	-42%	1.7	3	-2.3	0.3	-3	46	.

(continued)
SMILES	Vif TR-FRET	RanGTP-Imp inh	Calb FLC	LANA-H2B inh	A1 inh	Beta cell apopt	T cruzi inh	AF4-AF9 inh
CCN(CC(=O)Nc1ccc(C(=O)OC)cc1)C1CCCCC1	.	5.4	-4	-0.2	0.9	-4	9	-2.1
COc1ccc(S(=O)(=O)N(C)CC(=O)NCc2ccc3c(c2)OCO3)cc1	.	10	-24	2.9	1.0	-5	14	-0.7
Cc1nn(CC(=O)Nc2ccc3c(c2)nc(CN2CCCCC2)n3C)c(=O)c2ccccc12	-2%&2%	-0.6	-3	3.4	0.0	-4	3	.
CCN(CC)C(=O)CSc1nnc(CSc2ncccn2)n1C	5%	8.5	-6	-0.3	-0.9	-6	-19	-2.5
CCOc1ccc(CCNC(=O)CS(=O)Cc2nc(-c3ccc(C)cc3)oc2C)cc1OCC (stereo not drawn)	.	0.7	-2	-3.1	0.0	-9	18	-4.2
COCCCNC(=O)[C@H](Cc1c[nH]c2ccccc12)NC(=O)OCc1ccccc1	-5%	-1.5	-5	-2.2	0.0	-3	-6	-18
N=c1c(S(=O)(=O)c2ccccc2)cc2c(=O)n3ccccc3nc2n1CC1CCCO1 (stereo not drawn)	-4%	.	.	-4.3	0.1	6	.	.
O=C(O)CSc1nnc(COc2ccc([N+](=O)[O-])cc2)n1-c1ccccc1	2%	3.0	15	-3.1	0.2	-3	2	-0.1
COc1cc(NC(=O)c2cccc(C)c2)ccc1NC(=O)c1cc2ccccc2o1	.	-0.2	-2	2.6	8.2*	14	-1	-1.6
CCn1c(SCC(=O)NC(=O)NC(C)(C)C)nc2ccccc21	9%	5.9	5	13	0.4	-2	-5	-1.5
O=C(NCC1CCCO1)c1ccc2c(=O)n(CCc3ccccc3)c(=O)[nH]c2c1 (stereo not drawn)	-9%	2.5	-13	0.5	0.2	.	-8	.
O=S1(=O)CCC(NS(=O)(=O)c2cccc3cccnc23)C1 (stereo not drawn)	-2%	-4.5	2	-3.8	-0.1	-1	-14	.
O=C(Oc1ccc2c3c(c(=O)oc2c1)CCC3)c1ccco1	1%	-1.9	-12	1.3	0.0	.	4	5.3
CSc1ccc(S(=O)(=O)NCC(=O)OCC(=O)N(Cc2ccccc2)C(C)C)cc1[N+](=O)[O-]	-3%	1.1	8	-2.2	0.3	-14	14	10
Cc1ccc(/C(N)=N/OC(=O)c2ccco2)cc1	-8%	-12	31	2.9	-8.2	6	-13	.
Cc1cc(C(F)F)n2ncc(C(=O)O)c2n1	33%	-0.3	-12	1.4	-0.1	-1	-16	.
O=C(NN=Cc1ccccc1OC(F)F)c1cccc(S(=O)(=O)N2CCCC2)c1	-2%	.	.	5.3	-0.4	1	.	1.8
COc1ccc(/C(N)=N/OC(=O)Cc2ccccc2[N+](=O)[O-])cc1	-5%	3.9	6	-1.0	-1.1	.	-3	.
O=C(NCc1ccco1)c1ccc(C(=O)NCc2ccco2)s1	11%	3.0	2	-3.9	0.3	-6	-5	.
CC(C)C(=O)Nc1cccc(NC(=O)c2cccc(Br)c2)c1	8%	1.0	-8	-5.6	-1.9	4	-1	-1.0
COc1ccc(-c2cc(C(=O)N3CCN(S(=O)(=O)c4ccc(C)cc4)CC3)[nH]n2)cc1	-2%	1.9	3	-2.0	0.4	-10	-2	0.1
Nc1nnc(Cc2ccc(Cl)cc2)s1	1%	3.4	3	-10	0.4	-5	-5	.
Cc1ccc(OCCOC(=O)c2sc(=S)n(C)c2C)cc1	.	0.6	?	-6.4	1.9	0	15	-1.2
Cc1cc(OCCCN2CCCC2)ccc1Cl	.	2.8	-19	-6.4	0.0	.	28	3.4
Cc1noc(C)c1NC(=O)Nc1ccc2c(c1)C(=O)N([C@H](C)CO)C[C@H](C)[C@@H](CN(C)S(=O)(=O)c1cccs1)O2	.	.	.	-1.5	-0.2	-2	.	-2.5
CCOc1ccccc1NC(=O)COC(=O)c1cc(C(=O)OC)cc([N+](=O)[O-])c1	2%	2.5	-1	4.1	-0.2	-9	-1	.
CC1=C(C(=O)OCc2ccccc2)C(c2cccc3ccccc23)NC(=O)N1CCCC(=O)O (stereo not drawn)	.	.	.	-2.9	0.2	6	.	0.3
Cc1snc(S(=O)(=O)/C(C#N)=N/Nc2cccc(C(F)(F)F)c2)c1C#N	9%	-1.6	-9	0.7	-0.3	2	1	.
COc1cc(NC(=O)Cc2ccccc2)ccc1NC(=O)c1ccco1	-6%	1.4	-3	2.1	-0.3	3	14	.
Cc1nn(Cc2ccc(F)cc2)c(Cl)c1/C=N/NC(=O)c1cccnc1	8%	-1.9	10	2.8	-0.1	-3	3	0.9
CCc1nc(SCC(=O)Nc2c(C)n(C)n(-c3ccccc3)c2=O)n[nH]1	-9%	.	15	3.7	0.4	.	.	.
O=C(Nc1ccnn1C1CCN(C2CCCC2)CC1)c1ccccc1	-2%	-4.0	-13	7.8	0.7	5	-1	2.4
O=C(CSc1nnc(-c2ccncc2)o1)c1ccc2c(c1)OCCO2	-223%	1.2	-5	-7.1	0.5	0	-19	-1.4
O=C(COc1ccc(S(=O)(=O)N2CCOCC2)cc1)Nc1ccccc1C(F)(F)F	-1%	27*	-1	1.3	0.0	0	-10	.
COc1ccc(-c2noc3c2-c2nc(-c4ccccc4Cl)sc2CC3)cc1	.	-7.6	0	5.7	-0.8	4	-6	.
Cc1ccsc1C(=O)OCC(=O)NC1CCS(=O)(=O)C1 (stereo not drawn)	3%	2.6	8	-2.9	?	-3	-6	-0.9
CCCCn1nc(C(=O)N(C)CC(=O)Nc2ccc(F)c(F)c2F)ccc1=O	.	.	.	-0.1	0.3	3	.	-2.3
Cc1cccn2c(=O)c3cc(C(=O)NC4CCCCC4)c(=N)n(CCN4CCOCC4)c3nc12	.	113*	0	4.6	-0.4	6	18	-24
O=C(Nc1nc2c(s1)CCCC2)c1cccs1	6%	.	.	-0.2	-7.7	20	.	.
O=C(c1cc(-c2ccccn2)nc2c(Cl)cccc12)N1CCN(C(=O)C2CCCO2)CC1 (stereo not drawn)	14%	0.3	15	0.8	0.2	-2	1	.
O=C(CCNc1ccc(F)cc1)c1ccco1	4%	1.7	10	2.0	-1.1	-4	19	.
Cc1nc(SCC(N)=O)[nH]c(=O)c1CCC(C)C	1%	-0.3	40	-6.8	0.4	-8	-23	.
O=C(c1ccc(Cl)c(S(=O)(=O)N2CCCC2)c1)N1CCN(c2ccccc2F)CC1	-5%	-0.6	5	-1.9	-0.5	.	12	-0.8
COCOc1ccc(C2CC(=O)c3c(OCOC)cc(OCOC)cc3O2)cc1 (stereo not drawn)	.	-4.6	5	-3.5	-0.4	1	3	2.7
Cc1cc(=O)n2[nH]c(-c3cccnc3)nc2n1	23%	1.0	13	-2.1	0.9	5	3	6.9
O=C(CCNC(=O)c1ccc([N+](=O)[O-])cc1)NC1CCCCCC1	7%	.	.	i	0.8	0	.	-0.6
COc1ccc(C2=CN(Cc3ccccc3)C(c3ccccc3)CC2=O)cc1 (stereo not drawn)	.	.	.	-1.2	0.5	-2	.	-4.6
CC(C)(C)OC(=O)N1CCC[C@H]1C(=O)N/N=C/c1ccc2ncccc2c1	7%	-3.1	0	-4.1	-0.1	-3	-16	1.1

Complete entries from above. Values in the order: Vif TR-FRET, RanGTP-Imp inh, Calb FLC, LANA-H2B inh, A1 inh, Beta cell apopt, T cruzi inh, AF4-AF9 inh
Listed for CCOc1ccccc1NC(=O)COC(=O)c1cc(C(=O)OC)cc([N+](=O)[O-])c1 : 2%, 2.5, -1, 4.1, -0.2, -9, -1, .
Listed for COc1ccc(S(=O)(=O)N(C)CC(=O)NCc2ccc3c(c2)OCO3)cc1 : ., 10, -24, 2.9, 1.0, -5, 14, -0.7

Later entries.
SMILES	Vif TR-FRET	RanGTP-Imp inh	Calb FLC	LANA-H2B inh	A1 inh	Beta cell apopt	T cruzi inh	AF4-AF9 inh
COc1ccc(CCNC(=O)COC(=O)c2cncc(Br)c2)cc1OC	.	.	.	-3.5	0.3	-5	.	-0.1
O=C(NCc1cccc(Br)c1)c1cc(-c2ccccc2)nn1CC1CC(c2cccc([N+](=O)[O-])c2)=NO1 (stereo not drawn)	.	?	-5	0.0	1.0	5	35	.
O=C(NCCOC(=O)c1ccc([N+](=O)[O-])cc1)c1cccnc1	4%	-0.5	17	0.1	0.1	2	3	-1.1
Cc1ccc(C(=O)CC(c2cccs2)S(=O)(=O)c2ccc(C)cc2)cc1 (stereo not drawn)	-1%	3.1	0	-2.6	-2.7	-3	12	-3.9
COC(=O)c1ccccc1NC(=S)N1CCN(c2ccc(OC)cc2)CC1	6%	1.3	-4	-2.2	-0.1	-6	-4	8.2
CSCc1ccc(C(=O)Nc2cccc(C)c2C)cc1	-5%	1.3	-2	-1.3	-1.3	1	-16	.
CCOCCCNC(=O)c1ccc(NC(=O)C2=CSCCO2)cc1	.	2.3	3	-0.6	0.8	-5	-4	0.0

Not a hit list; 4.3% or so of the library scored in one or more.
